Screening data: PubChem, ICCB-Longwood Screening Facility, Harvard Medical School
MgrA DNA FP = S. aureus MgrA-DNA binding modulation; 84,000 tested, 0.13% active; inhibition, %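 (about 10 µg/mL by stock and volumes)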; fluorescence polarization;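 active = above 50% in either of two replicates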;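 note: 0% = protein plus DNA without compound and 100% = DNA alone without protein; higher means less MgrA bound to DNA so lower polarization; one replicate is shown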
S aureus helic = blocks Staphylococcus aureus DNA helicase | AID 485395 | 120,000 tested, 0.05% active | inhibition, %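 (tested at about 80 µM)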 | purified S. aureus helicase, fluorescence unwinding assay; about half of the hits fall short of the stated cut;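 active = both duplicates at 50% or more, or one of them with a favoured structure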;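 note: 0% = mean of negative control wells and 100% = mean of positive control wells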
* marks the source's active call; other numbers are inactive results; nt = not tested or not shown; & = joins results of further samples. A portion of the library; count on the stated rates, not on these rows.

The opening six records as a preview:
SMILES | MgrA DNA FP | S aureus helic
O=C(Oc1ccc2c(c1)oc(=O)c1ccccc12)c1ccco1 | nt | 0
COc1cc(/C=C/C(=O)NCCn2ccc3ccccc32)cc(OC)c1OC | 1.3 | 4
CN(C)C(CNC(=O)c1ccc(S(=O)(=O)NCc2ccco2)cc1)c1ccccc1 (stereo unspecified) | nt | -15
CNC(=O)c1cc(C#N)c(SC)s1 | 1.0 | nt
CCCS(=O)(=O)N1CCC(C(=O)NC(C)C)CC1 | nt | 4
COc1ccc(C2CC(C(F)(F)F)n3nc(C(=O)Nc4ccc(C(C)O)cc4)c(Cl)c3N2)cc1OC (stereo unspecified) | -0.6 | nt

All compounds of this part (from the top)
SMILES | MgrA DNA FP | S aureus helic
O=C(Oc1ccc2c(c1)oc(=O)c1ccccc12)c1ccco1 | nt | 0
COc1cc(/C=C/C(=O)NCCn2ccc3ccccc32)cc(OC)c1OC | 1.3 | 4
CN(C)C(CNC(=O)c1ccc(S(=O)(=O)NCc2ccco2)cc1)c1ccccc1 (stereo unspecified) | nt | -15
CNC(=O)c1cc(C#N)c(SC)s1 | 1.0 | nt
CCCS(=O)(=O)N1CCC(C(=O)NC(C)C)CC1 | nt | 4
COc1ccc(C2CC(C(F)(F)F)n3nc(C(=O)Nc4ccc(C(C)O)cc4)c(Cl)c3N2)cc1OC (stereo unspecified) | -0.6 | nt
CCSc1nnc(NC(C)=O)s1 | nt | -3
COc1ccc(-c2noc(CC(=O)N3CCCCCC3)n2)cc1 | 0.0 | 3
OCCN1CN(Cc2cccc(Cl)c2)Cn2c1nc1ccccc12 | nt | -5
CCc1ccc(C(=O)CSc2nnc(-c3ccncc3)n2C2CC2)s1 | nt | -9
O=C(O)CCCn1ccnc1 | 4.3 | 15
CCCSc1nnc(CSc2ncccn2)n1-c1ccc(F)cc1 | nt | 6
CCc1ccccc1N(C)C(=O)CCn1c(=S)oc2ccccc21 | -0.7 | 9
O=C(CNC1CC1)NCc1cccs1 | 4.0 | -2
COCCn1c(SCC(=O)NCc2ccccc2)nc2ccccc21 | nt | -16
Cc1cc(=O)[nH]c(SCC(=O)NCC2CCCCC2)c1C#N | nt | 9
COc1ccc(C(N)c2ccccc2)cc1 (stereo unspecified) | -3.0 | 1
CC(C)NC(=S)NC(=O)c1cccs1 | 1.1 | -10
O=C(CSc1ccccc1)N1CCN(S(=O)(=O)c2cccs2)CC1 | 1.4 | -16
O=C(OCc1ccc(Cl)cc1Cl)c1ccc2ccccc2n1 | 0.4 | nt
O=C(CCC1CCCC1)Nc1ccc(-c2nnc3n2CCCCC3)cc1 | 0.2 | 2
COc1ccc(C2=NN3C(C2)c2cc(Cl)ccc2OC3c2ccc(F)cc2)cc1OC (stereo unspecified) | 0.5 | nt
CCOc1nc2cccnc2n(CC(=O)Nc2ccccc2C(F)(F)F)c1=O | nt | 7
CCCN1CCN(C(=O)Nc2ccc(C(=O)OCC)cc2)CC1 | -1.1 | 17
COc1ccc(-c2nc3c(sc(=S)n3-c3ccccc3)c(=O)[nH]2)cc1 | nt | 7
CCOC(=O)c1ccccc1NC(=O)Cn1ccsc1=N | nt | -4
Cc1ccc(S(=O)(=O)c2n[nH]n3c2nc(=O)c2ccccc23)cc1 | 0.3 | 1
O=C(O)c1ccc2c(c1)C(=O)N(Cc1ccccc1)C2=O | nt | 5
CSc1n[nH]c(NC(C)=O)n1 | -0.7 | nt
CS(=O)(=O)Nc1cccc(C2=NN(C(=O)c3ccco3)C(c3ccccc3F)C2)c1 (stereo unspecified) | 4.2 | 15
CC(Sc1nnnn1C)C(=O)NCC1CCCCC1 (stereo unspecified) | nt | 9
CC(C)CC(=O)N1CCC2(CC1)CC(=O)c1ccccc1O2 | nt | -1
CC1CCc2cc(F)cc3c(=O)c(C(=O)O)cn1c23 (stereo unspecified) | 0.2&1.8 | nt
O=C(OCN1C(=O)c2ccccc2C1=O)c1ccc2ccccc2n1 | nt | 2
CN(C(=O)COc1ccc(Br)cc1)C1CCS(=O)(=O)C1 (stereo unspecified) | -0.5 | 18
O=C(Cc1ccccc1F)NCC1COc2ccccc2O1 (stereo unspecified) | nt | -13
COc1ccc(C(=S)N2CCNCC2)cc1 | nt | -14
O=C(O)Cn1c2ccccc2c2n[nH]c(=S)nc21 | 8.9 | -2
Cc1cccc(C)c1NS(C)(=O)=O | -0.5 | 2
CCC(C)NS(=O)(=O)c1ccc(N)cc1 (stereo unspecified) | 1.8 | 2
COC(=O)c1cc(N2CC(C)(C)C2=O)cc(N2CC(C)(C)C2=O)c1 | 0.8 | nt
Cc1oc(C(C)(C)C)cc1C(=O)Nc1ccc(C(C)C)cc1 | 4.0 | nt
O=C(c1ccccc1)N(c1ccccc1)c1ccccc1 | -2.2 | 9
Cc1cnc(/N=C/NO)c(Br)c1 | 0.9 | nt
CCNC(=S)N1CCN(C(=O)OCC)CC1 | nt | 8
CCc1ccc(OCc2n[nH]c(=S)n2CC(C)C)cc1 | nt | -16
CC1CCCN(S(=O)(=O)c2cc(Cl)c(Cl)cc2Cl)C1 (stereo unspecified) | -1.4 | nt
COc1cccc2cc(-c3csc(C)n3)c(=O)oc12 | 2.5 | 13
O=C(CNCCCN1CCOCC1)Nc1ccc(OC(F)(F)F)cc1 | 4.6 | 8
COC(=O)Cc1[nH]n(-c2ccc(F)cc2)c(=O)c1C(C)=NCCc1cnc[nH]1 | 2.6 | 3
O=C(Nc1ccccc1C(=O)OCC(=O)N1CCCc2ccccc21)c1ccco1 | nt | -2
CC(=O)Nc1ccc2c(c1)nc1n2CCN(C2CCCCC2)C1 | -3.6 | 7
CCC(CC)NC(=O)C(C)Nc1nc2ccccc2s1 (stereo unspecified) | nt | -4
CCCN(S(=O)(=O)c1ccc(OCC)cc1)S(=O)(=O)c1cc(OC)ccc1OC | nt | 13
Nc1nc(NCc2ccccc2)nc(NCc2ccccc2)c1[N+](=O)[O-] | -0.1 | nt
CCCCCn1c(=N)n(CCOc2ccccc2)c2ccccc21 | nt | -17
CCOc1ccc2c(c1)n(CO)c(=S)n2CO | -0.9 | 10
CC(=O)N1c2ccccc2C(=O)C1N(Cc1cccs1)C1CCCC1 (stereo unspecified) | nt | 10
Cc1nnc(SCc2ccc3c(c2)OCO3)s1 | 4.2 | -2
CCOC(=O)c1c(NC(=O)COc2ccccc2OC)sc2c1CCCC2 | nt | 4

Some of these compounds in order of their number in S aureus helic, rising.
canonical_smiles	S aureus helic
CCCCCn1c(=N)n(CCOc2ccccc2)c2ccccc21	-17
CCC(CC)NC(=O)C(C)Nc1nc2ccccc2s1 (stereo unspecified)	-4
O=C(Nc1ccccc1C(=O)OCC(=O)N1CCCc2ccccc21)c1ccco1	-2
CC(=O)Nc1ccc2c(c1)nc1n2CCN(C2CCCCC2)C1	7
O=C(CNCCCN1CCOCC1)Nc1ccc(OC(F)(F)F)cc1	8
CCOc1ccc2c(c1)n(CO)c(=S)n2CO	10
COc1cccc2cc(-c3csc(C)n3)c(=O)oc12	13

Further entries
SMILES | MgrA DNA FP | S aureus helic
Cc1ccc(NC(=O)N2CCC(O)C2)cc1 (stereo unspecified) | -0.1 | 14
CC(C)(C)S(=O)(=O)Cc1nc(-c2ccc(C#N)cc2)cs1 | -1.2 | nt
O=C(CCCc1ccccc1)N1CCN(c2ccccn2)CC1 | 3.4 | 12
CC(C)N(C(=O)CSc1nnc(NC(=O)c2ccco2)s1)C(C)C | 0.7 | -3
Cc1ccccc1NC(=O)Cn1nnc(-c2ccc(CN3CCC(C)CC3)cc2)n1 | -0.7 | 0
O=C(OCc1ccccc1)Oc1cncc(C(=O)ON2C(=O)CCC2=O)c1 | 0.9 | 0
Cc1cccc(N(C)Cc2nnc(-c3cccc(Br)c3)o2)c1 | -0.5 | 5
O=C1C=CC(=O)C(c2ccc(C(=O)O)cc2)=C1 | 83* | 34
COC(=O)c1ccc(COc2c(-c3ccco3)oc3ccccc3c2=O)cc1 | -0.2 | 8
Cc1nc2c(ncn2-c2ccccc2)c(=O)n1NC(=O)CN1CCN(C)CC1 | nt | 2
O=C(CCS(=O)(=O)c1cc2c3c(c1)CCN3C(=O)CC2)Nc1ccccc1 | nt | 5
N#CCCN(C(=O)c1sc2ccccc2c1Cl)C1CCCCC1 | -2.2 | nt
Cc1cnc(C(=O)Nc2nn[nH]n2)cn1 | 2.2 | nt
O=C(O)C1CCCN(c2ccccn2)C1 (stereo unspecified) | -1.1 | 11
N#Cc1cnc(SCC(=O)N(C2=CCCCC2)C2CC2)nc1N | nt | -10
C1CCc2nnc(C3CC3)n2CC1 | -2.7 | 11
CC(C)(C)SCC(=O)Nc1nc(-c2cccs2)c(-c2cccs2)s1 | nt | -5
CC(C)NC(=O)CN1C(=O)c2ccccc2S1(=O)=O | nt | 36
O=C(C1Cc2ccccc2C1)N1CCOCC1 | -1.2 | nt
COc1ccc2[nH]c(=O)c(CN(Cc3ccco3)C(=S)NC3CCCCC3)cc2c1 | 3.0 | 1
Cc1ccc(CNC(=O)C2CC(=O)OC23CCCC3)c(C)c1 (stereo unspecified) | 2.4 | 5
c1ccc(C(Sc2ccccn2)c2ccccc2)cc1 | -2.4 | 9
CNC(=O)NC(=O)CN1CC(=O)Nc2ccccc21 | nt | -4
CN(CCOc1ccccc1)C(=O)c1ccc2c(c1)OCO2 | nt | 6
COc1cc2c(cc1OC)C(CC(=O)Nc1ccccc1)C(=O)N(C(C)=O)N=C2C (stereo unspecified) | 4.3 | 15
CCN(CC(=O)NC1CCS(=O)(=O)C1)C(=O)C1c2ccccc2Oc2ccccc21 (stereo unspecified) | nt | -8
CC(C)(C)OC(=O)N/N=C\c1cc2c(cc1Br)OCO2 | nt | -23
Cc1ccc2[nH]c3c(N(C)C)ncnc3c2c1 | 1.6 | 8
CCOc1ccc(CCNC(=O)C2CCCN(S(=O)(=O)N3CCCCC3)C2)cc1OCC (stereo unspecified) | nt | -8
CCC(C)(C(=O)NC1CCCC1)N(C(C)=O)c1ccc(C)cc1 (stereo unspecified) | 0.8 | 5
Cc1c(OCc2ccc(Cl)c(Cl)c2)ccc(-c2ccn[nH]2)c1O | -2.9 | nt
CN(C)C(=S)Nc1cc(C(F)(F)F)cc(C(F)(F)F)c1 | 0.4 | nt
CCc1ccccc1N1CCN(C(=O)c2ccc(Cl)cc2)CC1 | -0.8 | 14
OC(CN1CCCCC1)Cn1ccc2ccccc21 (stereo unspecified) | -3.1 | -4
CSC1=NCC(=O)N1Cc1cccc(Cl)c1 | 0.6 | nt
CN(C)c1ccc(C(=O)Nc2nc3ccc(Cl)cc3s2)cc1 | nt | 6
COc1ccc2oc(=O)c(C(=O)NCCCn3ccnc3)cc2c1 | -0.9 | 3
CC(=O)Nc1ccc(S(=O)(=O)N[C@@H](C)C(=O)NC2CCCc3ccccc32)cc1 (stereo partly specified) | nt | -17
CC(C)n1nccc1NC(=O)c1cc2c(s1)CCCCC2 | nt | -3
COC(=O)c1cc(C)nc(Sc2n[nH]c(-c3cc(Cl)cc(Cl)c3)n2)n1 | nt | -14
Cc1ccc(Nc2ssc(=O)c2Cl)cc1C | nt | -5
CC(C)CNC(=O)Nc1ccccc1F | -0.5 | 6
CN(C(=O)c1ccc2c(Cl)c3c(nc2c1)CCCC3)c1ccc(Cl)cc1 | 0.0 | 15
O=C(c1cc(-c2ccccc2)n[nH]1)N1CCCCC1 | -1.6 | 11
Cc1ccc2c(Sc3ccc(Cl)cc3)c(C(=O)NC3CCCC3)[nH]c2c1 | -0.1 | 14
CCCN1C(=O)c2ccc(C(=O)NC3=NCCS3)cc2C1=O | 4.2 | -16
Cc1ccc(NCc2nnc(SCC(=O)O)n2-c2cccc(Cl)c2)cc1 | -1.1 | -7
COc1ccccc1CNCC(=O)Nc1cc(C)on1 | 14 | 4
O=C(OCc1ccccc1)C1CCN(S(=O)(=O)c2cccs2)CC1 | nt | 6
C=CCNC(=O)CSc1nc2ccccc2[nH]1 | nt | 4
Cc1ccc(N2C(=O)CC(Sc3nc(C4CC4)ccc3C#N)C2=O)cc1 (stereo unspecified) | 1.7 | nt
CC(C)CC(NC(=O)C1CCCCC1)C(=O)Nc1ccccc1F (stereo unspecified) | nt | 8
O=c1ccnc(SCc2ccccc2Cl)[nH]1 | -0.1 | 14&3
O=C(Cn1cnc(S(=O)(=O)N2CCCC2)c1)NC1CCN(Cc2ccccc2)CC1 | 1.1 | -2
COC(=O)c1ccc2c(c1)nc1n2CCCC1 | -4.2 | 0
Nc1ccc(C(O)(C(F)(F)F)C(F)(F)F)cc1 | 0.1 | -18
N#CCCN(Cc1cccs1)S(=O)(=O)c1ccccc1 | -1.4 | nt
O=c1oc2ccc(Br)cc2cc1S(=O)(=O)c1ccc(Cl)cc1 | nt | -14
O=C(CSc1nnc(-c2cccc(F)c2)o1)N1c2ccccc2Sc2ccccc21 | 1.5 | -2
CC(NC(=O)COc1ccccc1)C(=O)N1CCN(S(=O)(=O)c2cccs2)CC1 (stereo unspecified) | nt | 18

The list goes on:
SMILES | MgrA DNA FP | S aureus helic
Cc1noc(N)c1C1(O)C(=O)N(CCC(C)C)c2ccccc21 (stereo unspecified) | nt | -5
O=C(CC1CCOCC1)Nc1ccc(I)cc1 | 1.9 | 13
CN(C)c1ccc(C2/C(=C(/O)c3ccc(Cl)cc3)C(=O)C(=O)N2Cc2ccccc2)cc1 (stereo unspecified) | -0.6 | 3
NC(=O)NC(=O)c1nc2nonc2[nH]c1=O | -0.4 | 23
COc1ccc(Br)cc1CSC(=N)N | 0.3 | 17
Cc1[nH]nc2c1C1(C(=O)Nc3ccc(Br)cc31)C(C#N)=C(N)O2 (stereo unspecified) | 0.0 | nt
CN(/N=C1\CCCc2occ(C(=O)O)c21)c1ncc(Cl)cc1C(F)(F)F | -1.9 | nt
c1ccc(CSc2nccc(-c3cccnc3)n2)cc1 | -2.9 | nt
COc1ccc(/C=C/C(=O)OC2CCCCC2CN(C)C)cc1 (stereo unspecified) | 0.6 | 3
Cc1nc(N)sc1N=Nc1ccc(F)cc1 | nt | 10
